# Source: PubChem (Broad Institute)
# BJeLR viab HTS – BJeLR cell viability reduction; BJeLR fibroblasts viability, CellTiterGlo ATP luminescence, 48 h; HRASV12, hTERT and SV40 LT/ST transformed; viability loss activity score, % (test concentration not listed); 30,000 compounds, 0.64% hits; AID 2275; in the data active = viability loss activity score above about 50%; about a fifth of its hits are not listed in these tables;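 note: higher score means fewer live cells and less ATP luminescence; stock transfer was 50 or 100 nL into about 30 µL; 0% = vehicle wells and 100% = a reference killing control; one replicate is shown; the record names a cut of 85%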
# A1 inh – blocks A1 activity; MEF A1-2A-BIM cells, caspase-Glo luminescence, 3 h; percent of clofoctol signal, DMSO as zero; caspase activation, % (concentration not given with the values); 21,000 compounds, 0.51% hits;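 active = most replicate scores above 10, or exactly half above 10 with mean activity above 10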;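 note: effector caspase 3 and 7 activity cleaving a DEVD luciferin substrate; 50 nL library stock added to about 30 µL; numbers are from one replicate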
# Numbers without * were called inactive; x = no result given.
SMILES | BJeLR viab HTS | A1 inh
Cn1c2ccccc2n2c(=O)cc(-c3ccccc3)c(C#N)c12 | 2.8 | -0.7
C[C@H](NC[C@H](O)CP(=O)(O)Cc1ccccc1)c1ccc(Cl)c(Cl)c1 | -0.3 | -0.2
CCNc1sc(S(C)(=O)=O)nc1S(=O)(=O)c1ccc(Cl)cc1 | -3.1 | 0.0
CCCCN(CC)C(=O)Cn1c(=O)n(Cc2ccccc2Cl)c(=O)c2cc(OC)c(OC)cc21 | 0.8 | x
O=C(CC1Nc2c3ccccc3nc(=S)n2C1=O)NCc1ccccc1 (centres undefined) | 0.5 | -0.6
Cc1ccc(S(=O)(=O)N(C)C[C@@H]2Oc3c(NS(=O)(=O)c4cccs4)cccc3C(=O)N([C@H](C)CO)C[C@H]2C)cc1 | 8.1 | x
C[C@@H]1CN([C@H](C)CO)C(=O)c2cc(NC(=O)Nc3cccc4ccccc34)ccc2O[C@@H]1CN(C)S(=O)(=O)c1cccs1 | -1.8 | 1.1
C[C@@H]1CN([C@H](C)CO)C(=O)c2cc(N(C)C)ccc2O[C@@H]1CN(C)Cc1ccc(C(=O)O)cc1 | 1.9 | 0.6
Cc1ccc(S(=O)(=O)N(C)C[C@H]2Oc3ccc(NC(=O)NC(C)C)cc3C(=O)N([C@@H](C)CO)C[C@@H]2C)cc1 | 4.8 | -0.1
COc1cc(C2Nc3ccccc3S2)cc(OC)c1OC (centres undefined) | -2.9 | 2.3
COc1ccc(-n2c(SCC(=O)c3ccc(Cl)cc3)nc3ccccc3c2=O)cc1 | 1.7 | 7.5
Cc1noc(C)c1S(=O)(=O)Nc1ccc2c(c1)C(=O)N([C@@H](C)CO)C[C@@H](C)[C@H](CN(C)S(C)(=O)=O)O2 | -1.0 | 0.8
CC1(C)CC(CCNC(=O)c2ccccc2C(=O)O)(Cc2ccccc2)CCO1 (centres undefined) | -3.4 | -0.1
C=CCn1cc(C=C2C(=O)N(C)C(=S)N(C)C2=O)c2ccccc21 | -3.9 | 1.2
COc1ccc(NC(=O)Nc2cccc3c2O[C@H](CN(C)Cc2ccc(Oc4ccccc4)cc2)[C@H](C)CN([C@H](C)CO)C3=O)cc1 | -2.0 | x
O=C(c1cc(-c2ccc(O)cc2)on1)N1CCN(Cc2ccccc2)CC1 | 3.0 | x
C[C@H]1CN([C@@H](C)CO)C(=O)c2cc(NC(=O)Cc3cn(C)c4ccccc34)ccc2O[C@@H]1CN(C)S(=O)(=O)c1ccc(F)cc1 | -1.7 | -0.3
Cc1noc(C)c1NC(=O)N(C)C[C@H]1Oc2ccc(NC(=O)NC(C)C)cc2C(=O)N([C@@H](C)CO)C[C@@H]1C | 2.1 | 0.9
c1ccc(-c2nc(-c3cccs3)[nH]c2-c2ccccc2)cc1 | 8.7 | -1.2
C[C@@H]1CN([C@H](C)CO)C(=O)c2cccc(NC(=O)C3CCCCC3)c2O[C@H]1CN(C)S(=O)(=O)c1ccccc1 | 0.6 | x
C[C@@H]1CN([C@H](C)CO)C(=O)c2cccc(NC(=O)Nc3ccc(F)cc3)c2O[C@H]1CN(C)Cc1ccc(C(=O)O)cc1 | -1.5 | x
C[C@H](CO)N1C[C@H](C)[C@@H](CN(C)Cc2ccc(Oc3ccccc3)cc2)Oc2c(NC(=O)Nc3ccc(C(F)(F)F)cc3)cccc2C1=O | 3.5 | x
Cc1noc(C)c1S(=O)(=O)N(C)C[C@@H]1Oc2c(NC(=O)C3CCOCC3)cccc2C(=O)N([C@H](C)CO)C[C@@H]1C | 3.7 | x
Cc1ccc2nc3ccc(NCc4ccccc4)nn3c(=O)c2c1 | -1.1 | 1.2
CC1OC(=O)CC2C(C(=O)O)=CC3CC(C)(C)CC312 (centres undefined) | -1.7 | 0.2
CC(NC(=O)/C=C/c1ccc2c(c1)OCO2)c1ccccc1 (centres undefined) | -5.3 | 0.3
Cc1ccc(S(=O)(=O)Nc2ccc3c(c2)C(=O)N([C@H](C)CO)C[C@H](C)[C@@H](CN(C)S(=O)(=O)c2ccccc2)O3)cc1 | -3.5 | -0.3
Cc1sc(NC(=O)C(Cc2ccccc2)Cc2ccccc2)c(C#N)c1C | 0.5 | 0.4
C[C@@H]1CN([C@@H](C)CO)C(=O)c2cc(N(C)C)ccc2O[C@H]1CN(C)S(=O)(=O)c1cccs1 | -2.1 | -0.8
COc1ccc(S(=O)(=O)n2nccc2-c2ccc(-c3cccs3)s2)cc1OC | 6.5 | -0.1
CCc1ccc(Sc2cc(C(=O)NC3CC3)c3ccccc3n2)cc1 | 6.8 | -1.0
CC(C)(C)c1ccc(CNC(=O)C2CCCN2S(=O)(=O)c2ccccc2)cc1 (centres undefined) | 2.1 | 0.1
COc1ccc(-c2nn(C)c(=O)c3ccccc23)cc1CNC(=O)NC1CCCCC1 | 1.8 | x
C[C@@H]1CN([C@@H](C)CO)C(=O)c2cccc(NC(=O)C3CCCCC3)c2O[C@@H]1CN(C)Cc1ccccc1 | 1.6 | x
C[C@H]1CN([C@@H](C)CO)C(=O)c2cc(NC(=O)Nc3ccc4c(c3)OCO4)ccc2O[C@@H]1CN(C)Cc1ccccc1 | -5.1 | 0.5
C[C@H]1CN([C@@H](C)CO)C(=O)c2cc(NC(=O)Nc3ccc(F)cc3)ccc2O[C@@H]1CN(C)CC1CCCCC1 | 2.6 | 0.5
O=C(Cn1c2ccccc2c2cn[nH]c(=O)c21)NCCc1ccc(Cl)cc1 | -4.3 | 0.2
CCOC(=O)c1sc(SCc2ccccc2)c(S(=O)(=O)C(C)C)c1-n1cccc1 | -6.4 | 0.3
CCOc1ccc(CCNC(=O)c2c(-n3cccc3)sc(C)c2C)cc1OCC | 1.6 | -0.2
Cc1noc(C)c1NC(=O)N(C)C[C@H]1Oc2c(NC(=O)C3CCCCC3)cccc2C(=O)N([C@H](C)CO)C[C@@H]1C | -0.2 | x

# Compound profiles, from the list above. Order of values: BJeLR viab HTS	A1 inh
# C[C@H]1CN([C@@H](C)CO)C(=O)c2cc(NC(=O)Nc3ccc(F)cc3)ccc2O[C@@H]1CN(C)CC1CCCCC1 as listed: 2.6	0.5
# C[C@@H]1CN([C@@H](C)CO)C(=O)c2cccc(NC(=O)C3CCCCC3)c2O[C@@H]1CN(C)Cc1ccccc1 as listed: 1.6	x

# Continuation.
SMILES | BJeLR viab HTS | A1 inh
CC(C)NC(=O)Nc1cccc2c1O[C@@H](CN(C)Cc1ccc(C(F)(F)F)cc1)[C@@H](C)CN([C@@H](C)CO)C2=O | -2.3 | x
C[C@H](CO)N1C[C@H](C)[C@H](CN(C)S(=O)(=O)c2ccc(Cl)cc2)Oc2ccc(NC(=O)Nc3ccccc3)cc2C1=O | -8.1 | -0.1
C[C@H]1CN([C@@H](C)CO)C(=O)c2cccc(NS(=O)(=O)c3cn(C)cn3)c2O[C@H]1CN(C)C(=O)Nc1ccccc1 | 2.1 | x
O=C(c1ccc(CSc2ncccn2)cc1)N1CCOCC1 | 3.7 | -2.2
CCC(C)[C@@H](CO[C@@H](Cc1ccccc1)C(=O)N[C@@H](CCS(C)(=O)=O)C(=O)OC(C)C)NC[C@@H](N)CS (some centres undefined) | x | -1.2
C[C@@H]1CN([C@@H](C)CO)C(=O)c2cc(N(C)C)ccc2O[C@H]1CN(C)S(=O)(=O)c1ccc(Cl)cc1 | -0.4 | 0.7
COc1ccc(CN(C)C[C@H]2Oc3c(NC(=O)C4CCOCC4)cccc3C(=O)N([C@H](C)CO)C[C@@H]2C)cc1 | -0.6 | x
CC(C)(C)S(=O)(=O)Cc1nc(-c2cccc(F)c2)cs1 | 0.2 | 0.2
Cc1ccc(CSc2ncccc2C(F)(F)F)cc1 | 1.9 | 0.2
O=C1CSc2ccc(C(=O)NCCCN3CCCCC3)cc2N1 | 4.1 | 0.6
C[C@H]1CN([C@@H](C)CO)C(=O)c2cccc(NC(=O)c3nc4ccccc4s3)c2O[C@H]1CN(C)Cc1ccc(Oc2ccccc2)cc1 | 6.5 | x
Cc1nn(Cc2nc(C(C)(C)C)cs2)c(C)c1Br | -0.7 | 0.2
C[C@@H]1CN([C@H](C)CO)C(=O)c2cccc(NC(=O)c3ccc(-c4nccs4)cc3)c2O[C@@H]1CN(C)CC1CCCCC1 | -2.0 | x
c1cncc(C2OCC3(CO2)COC(c2cccnc2)OC3)c1 (centres undefined) | -1.3 | 0.2
Cc1ccc(S(=O)(=O)N(C)C[C@@H]2Oc3ccc(NC(=O)CCCCCC(=O)Nc4ccccc4N)cc3C(=O)N([C@@H](C)CO)C[C@@H]2C)cc1 | -4.1 | x
CC1(C)CC(=O)C(C=NCCN2CCN(C(=O)Nc3ccc(Cl)c(Cl)c3)CC2)=C(O)C1 | 1.4 | 1.2
O=C(NCCc1ccccc1)c1ccccc1O | 27 | -6.6
O=c1cc(O)c2sc3nc(-c4cccnc4)c4c(c3c2[nH]1)CCCC4 | 4.8 | 0.1
Cc1cc(C(=O)Nc2cccc3c2O[C@@H](CN(C)C(=O)Nc2cccc4ccccc24)[C@@H](C)CN([C@H](C)CO)C3=O)n(C)n1 | -0.1 | x
CC1=CC(C)(C)N(S(=O)(=O)c2ccc(C)cc2)c2ccccc21 | 57* | 0.8

# Of the compounds above, 3 have an NH in an aromatic ring:
SMILES | BJeLR viab HTS | A1 inh
c1ccc(-c2nc(-c3cccs3)[nH]c2-c2ccccc2)cc1 | 8.7 | -1.2
O=C(Cn1c2ccccc2c2cn[nH]c(=O)c21)NCCc1ccc(Cl)cc1 | -4.3 | 0.2
O=c1cc(O)c2sc3nc(-c4cccnc4)c4c(c3c2[nH]1)CCCC4 | 4.8 | 0.1

# The list continues.
SMILES | BJeLR viab HTS | A1 inh
CCCc1oc2c(cc(NS(=O)(=O)c3ccc(CC)cc3)c3ccccc32)c1C(=O)OCC | -4.3 | x
CC(C)NC(=O)Nc1ccc2c(c1)C(=O)N([C@H](C)CO)C[C@H](C)[C@@H](CN(C)C(=O)NC1CCCCC1)O2 | -3.0 | 0.4
C[C@@H]1CN([C@H](C)CO)C(=O)c2cc(NC(=O)CCC(F)(F)F)ccc2O[C@@H]1CN(C)Cc1ccncc1 | 7.1 | -0.1
COc1ccccc1N1CCN(c2nc(Nc3ccc(C)cc3)c3cnn(C)c3n2)CC1 | -4.5 | -0.5
CCc1ccc(NC(=O)C2CCN(S(=O)(=O)c3c(C)[nH]c(=O)[nH]c3=O)CC2)cc1 | -3.2 | x
COc1ccc(S(=O)(=O)N(C)C[C@@H]2Oc3c(NC(=O)Nc4c(C)noc4C)cccc3C(=O)N([C@H](C)CO)C[C@@H]2C)cc1 | -4.3 | x
COc1ccc(CN(C)C[C@H]2Oc3c(NC(=O)C4CC4)cccc3C(=O)N([C@@H](C)CO)C[C@H]2C)cc1 | -0.1 | x
C[C@H]1CN([C@@H](C)CO)C(=O)c2cc(NS(=O)(=O)c3ccc(Cl)cc3)ccc2O[C@H]1CN(C)Cc1ccccc1 | -1.9 | -0.1
O=C(CNS(=O)(=O)c1ccc(Br)s1)NCc1ccccc1 | 0.9 | x
CCn1c(=O)c2cc(C(=O)NC3CCCC3)sc2c2ccccc21 | 1.2 | x
C[C@H]1CN([C@@H](C)CO)C(=O)c2cc(NS(=O)(=O)c3cccs3)ccc2O[C@H]1CN(C)C(=O)NC1CCCCC1 | 1.7 | -0.5
O=c1c(=O)n2c(nn1Cc1ccc(F)cc1)sc1ccccc12 | 4.1 | 0.0
CCc1ccc(NC(=O)CNS(=O)(=O)c2ccc3nc(C)sc3c2)cc1 | -3.4 | 1.4
C[C@@H]1CN([C@H](C)CO)C(=O)c2cccc(NC(=O)C3CCOCC3)c2O[C@H]1CN(C)S(=O)(=O)c1ccc(F)cc1 | 0.0 | x
CC(C)(CC(=O)O)CC(=O)Nc1ccc(Oc2ccc(C(C)(C)C)cc2)nc1 | 0.1 | 0.0
NC(=NC(=O)c1ccccc1)N1N=CCC1c1ccccc1 (centres undefined) | 4.9 | x
Cc1noc(C)c1NC(=O)N(C)C[C@@H]1Oc2c(cccc2N(C)C)C(=O)N([C@H](C)CO)C[C@@H]1C | 3.2 | x
COc1ccc(S(=O)(=O)Nc2cccc3c2O[C@H](CN(C)Cc2ccc(Cl)c(Cl)c2)[C@H](C)CN([C@@H](C)CO)C3=O)cc1 | 6.0 | x
CCC(C)NC(=O)Cn1c(=O)n(CCc2ccccc2)c(=O)c2c3c(sc21)CCCC3 (centres undefined) | 9.1 | x
C[C@H]1CN([C@@H](C)CO)C(=O)c2cc(NC(=O)c3ccncc3)ccc2O[C@H]1CN(C)C(=O)Nc1cccc2ccccc12 | 1.8 | 1.6
COc1ccc(S(=O)(=O)Nc2ccc3c(c2)C(=O)N([C@@H](C)CO)C[C@H](C)[C@@H](CN(C)C(=O)Nc2ccc(C(F)(F)F)cc2)O3)cc1 | -3.2 | 0.4
C[C@@H]1CN([C@H](C)CO)C(=O)c2cccc(NS(=O)(=O)c3ccc(Cl)cc3)c2O[C@H]1CN(C)C(=O)Nc1ccc(C(F)(F)F)cc1 | -0.7 | x
CC1=NN(C(=O)c2ccccc2)C(O)(C(F)(F)F)C1 (centres undefined) | -1.6 | 0.9
O=C(NCCc1nc2ccccc2n1Cc1ccccc1)c1ccccc1 | -0.5 | 0.4
Cn1c(CSc2cc(C(F)(F)F)nc3ccccc23)nnc1SCC(=O)c1ccccc1 | -3.9 | -0.5
Cc1noc(C)c1S(=O)(=O)N(C)C[C@H]1Oc2ccc(NS(=O)(=O)c3ccc(F)cc3)cc2C(=O)N([C@H](C)CO)C[C@H]1C | -3.8 | 0.6
C[C@H](CO)N1C[C@H](C)[C@@H](CN(C)C(=O)Nc2ccccc2)Oc2ccc(NC(=O)NC3CCCCC3)cc2C1=O | -0.4 | -0.3
Cc1ccc(C(=O)N2CCCCC2)cc1 | -1.2 | -0.3

# These rows are one share of the data; rates above refer to the full screens.
